Arbovirus anti: antivirals against arbovirus infection. AID 1251. arbovirus infection cell-based antiviral screen. 0.37% of 200,000 active. inhibition, % at 10 µM;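 active = inhibition from about 30%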;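 also: bluetongue infection of BSR cells; cell survival read as ATP light after 72 h; 0% = infected wells without compound and 100% = uninfected wells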
Mtb growth: M. tuberculosis H37Rv growth inhibitors, H37Rv strain (AID 1626); M. tuberculosis H37Rv growth inhibition; higher % means a stronger effect; one-dose inhibition, % at 10 µM; IC50 in µM for titrated hits; 0.95% of 220,000 active;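 active = confirmed in a dose series; inconclusive = inhibition above 80% but not taken into the dose series; inactive = below 80% or under 30% at every dose of the series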;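 also: bacteria incubated seven days before Alamar blue readout; 0% = bacteria only wells and 100% = bacteria with antibiotic wells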
Mtb betalactam: beta-lactam sensitization of Mtb H37Rv; M. tuberculosis H37Rv growth with meropenem, percent inhibition; hits of this screen are not shown here; inhibition, % at 25 µM; 0.27% of 330,000 active;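 active = about 74% or more and at least 40 points above the plate without the antibiotic, then above 30% in a dose series; inconclusive = first-round hits that could not be retested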;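 also: growth measured after seven days incubation then overnight dye step; 0% = bacteria only wells and 100% = bacteria with antibiotic; twin plates without the antibiotic show which effects depend on it; some results filed as inactive read as strong as hits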
RecA splice inh: blocks M. tuberculosis RecA intein splicing | inhibition, %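 (about 9 µM by stock and volumes)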 | cell-free RecA intein splicing, fluorescence | 0.75% of 290,000 active | P9WHJ3; in the data active = inhibition above about 30%; inconclusive = no clear call, values can overlap the other calls;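 also: 0% = vehicle wells and 100% = reference inhibitor control wells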
Target sequence (P9WHJ3 whole entry, looked up, canonical isoform): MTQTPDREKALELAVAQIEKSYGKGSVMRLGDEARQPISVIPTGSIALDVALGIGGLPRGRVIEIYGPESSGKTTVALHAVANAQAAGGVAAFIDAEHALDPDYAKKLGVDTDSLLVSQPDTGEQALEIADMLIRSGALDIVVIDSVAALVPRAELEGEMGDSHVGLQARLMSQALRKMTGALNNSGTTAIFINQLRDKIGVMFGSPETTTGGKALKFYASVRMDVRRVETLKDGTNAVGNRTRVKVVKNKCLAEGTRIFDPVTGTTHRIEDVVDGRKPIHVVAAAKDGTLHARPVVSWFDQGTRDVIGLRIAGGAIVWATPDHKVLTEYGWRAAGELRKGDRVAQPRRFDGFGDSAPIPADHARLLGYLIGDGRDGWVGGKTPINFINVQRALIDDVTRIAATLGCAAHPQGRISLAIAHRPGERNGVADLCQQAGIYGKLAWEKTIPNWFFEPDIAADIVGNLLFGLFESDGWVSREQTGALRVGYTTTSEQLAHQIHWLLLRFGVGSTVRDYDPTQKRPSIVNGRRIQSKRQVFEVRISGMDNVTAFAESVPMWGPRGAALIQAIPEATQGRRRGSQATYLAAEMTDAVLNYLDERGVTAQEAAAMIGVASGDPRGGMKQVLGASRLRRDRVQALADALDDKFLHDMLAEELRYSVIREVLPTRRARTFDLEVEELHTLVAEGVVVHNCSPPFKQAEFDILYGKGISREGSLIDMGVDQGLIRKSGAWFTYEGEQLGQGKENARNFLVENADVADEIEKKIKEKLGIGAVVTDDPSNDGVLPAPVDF
YopH inh: blocks Yersinia enterocolitica YopH tyrosine phosphatase. inhibition, %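 (about 10 µM by stock and volumes)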. 0.16% of 140,000 active. fluorescence Ex485/Em525;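 active = inhibition of 50% or more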;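 also: controls were vehicle for no effect and minimum signal wells for full effect; inactives centre near -20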
Arbovirus anti repeat: further read-out of Arbovirus anti, marked with its call; inhibition, %; measured here: 10K subset replicate screen; many hits read low in the repeat;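 first of two repeat runs on a subset; 0% = infected and 100% = uninfected wells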
* marks the source's active call; other numbers are inactive results; ? = inconclusive; nt = not tested or not shown. This is a subset (hit frequency here may not be typical).

SMILES | Arbovirus anti | Mtb growth | Mtb betalactam | RecA splice inh | YopH inh | others
O=C(CSc1nc2ccccc2o1)c1ccccc1 | -2 | 10% | 17 | 0.6 | -106
COc1ccc(N(CC(=O)N2CCOCC2)S(C)(=O)=O)cc1Cl | nt | nt | -6 | 0.4 | nt
Cc1nnc(-n2ncc(C#N)c2N)c2nn(-c3cccc(Cl)c3)c(C)c12 | 6 | 0% | 11 | -1.8 | -21
O=C(CSc1nc2ccc(Nc3nc(N4CCCC4)nc(N4CCCC4)n3)cc2s1)NCc1ccco1 | nt | 69% | 7 | 7.0 | nt
CN(C(=O)COC(=O)COc1ccc(Cl)cc1Cl)c1c(N)n(Cc2ccccc2)c(=O)[nH]c1=O | nt | nt | 26 | 1.8 | nt
O=C(NNC(=S)Nc1ccc(Br)cc1)c1ccccc1Br | nt | nt | 8 | 4.1 | nt
CCn1cc(Br)c(C(=O)Nc2ccc(F)cc2F)n1 | nt | nt | -3 | 1.4 | nt
CC(=O)N1CCOc2ccc(S(=O)(=O)Nc3ccc(Cl)cn3)cc21 | nt | nt | 4 | -3.9 | nt
COc1ccccc1N(C)S(=O)(=O)c1ccc(Cl)c(C(=O)NCC2(N(C)C)CCCCC2)c1 | nt | nt | -7 | -0.3 | nt
OCc1nnn(-c2cccc(C(F)(F)F)c2)c1CO | 4 | -9% | -9 | 4.2 | -45
Cc1cccc(NC(=O)CN2C(=O)N/C(=C\c3ccc(N4CCOCC4)cc3)C2=O)c1 | -20 | -3% | 6 | -3.6 | -8
CC(C)CNC1CCS(=O)(=O)C1 (centres undefined) | nt | 0% | -3 | -0.6 | nt
CCCN1C(=O)N(C)C(N(O)C(=O)NC)C1(C)C (centres undefined) | 5 | 0% | -10 | -3.4 | 7
CCC(C)(C)NC(=O)C(c1ccc(OC)cc1)N(C(=O)CCC(=O)Nc1cc(C)on1)c1cc(OC)ccc1OC (centres undefined) | nt | nt | -2 | -0.5 | nt
O=C(C1=C[C@H](c2ccc(Br)cc2)C[C@H](OCCCCO)O1)N1CCN(Cc2ccc3c(c2)OCO3)CC1 | -18 | 3% | nt | 3.1 | nt
Cc1ccc(-n2ncc3c2CCCC3NC(=O)CCc2c(C)noc2C)cc1C (centres undefined) | nt | nt | -10 | 0.8 | nt
CCc1cccc(NC(=S)Nc2cccc3ccccc23)c1 | nt | nt | -5 | 7.2 | nt
COc1ccc2nc(NC(=O)CSc3nnnn3C)sc2c1 | -6 | 2% | -1 | 0.4 | nt
CCOC(=O)c1nnn(-c2nonc2N)c1CS(=O)(=O)c1ccccc1 | 3 | -2% | -4 | nt | 1
OC(CN1CCCC1)Cn1ccc2ccccc21 (centres undefined) | nt | nt | 1 | -2.5 | nt
O=S(=O)(Nc1ccccc1Cl)c1ccc(-c2ccccn2)s1 | nt | nt | 4 | -1.4 | nt
O=C(CCN1C(=O)/C(=C/c2ccccc2)SC1=S)Nc1cccnc1 | nt | nt | 6 | 1.1 | nt
Cc1noc(/C=C/N(C)C)c1S(=O)(=O)N1CCCC(C(=O)NC2CCCCC2)C1 (centres undefined) | -7 | -11% | -8 | 2.9 | -40 | Arbovirus anti repeat=-26
Cc1ccc(-c2nnc(-n3nc(C)cc3C)c3ccccc23)cc1 | -5 | -5% | 0 | 6.8 | -38
CCOC(=O)CCSc1nc(-c2ccc3c(c2)OCO3)cc(C(F)(F)F)c1C#N | 3 | 0% | 15 | -1.8 | -55
COCCN(C(=S)Nc1c(C)cccc1C)C(C)c1ccco1 (centres undefined) | nt | 2% | -3 | -4.9 | nt
CSc1ccc(CN2CCN(C3CCCC3)C(CCO)C2)cc1 (centres undefined) | -2 | 0% | -2 | 0.7 | nt
COc1ccc(N=Cc2c(O)[nH]c3ccccc23)cc1OC | -28 | -1% | -3 | nt | 4
COC(=O)CN(c1nc(C)cc(OC)n1)S(=O)(=O)c1ccccc1 | -6 | 1% | nt | -1.2 | -21
COC(=O)c1sc2nc(C)cc(-c3ccccc3)c2c1N | -3 | ? | -2 | -11 | -27
CCOP(=O)(c1c(F)c(F)c(F)c(F)c1F)C1(O)CCCCC1 (centres undefined) | 3 | 8% | 4 | 22 | -12
COc1ccc(C(=O)N2CCc3c([nH]c4ccccc34)C2C(F)(F)F)cc1 (centres undefined) | nt | -3% | -9 | -0.3 | nt
COc1cc(/C=N\NC(=O)C2CC3C=CC2C3)ccc1O (centres undefined) | -6 | 6% | -3 | -4.0 | -8
COC/C=C/C1=CC2=CC(=O)C(C)(OC(=O)c3cnc4ccccc4n3)C(=O)C2=CN1Cc1ccco1 (centres undefined) | nt | -15% | -5 | 0.0 | nt
Cc1cc(S(=O)(=O)N(Cc2ccccc2)Cc2ccc(N(C)C)cc2)ccc1-n1cnnn1 | 0 | -2% | 5 | 3.9 | -30
COc1cc(CN(CCc2c(C)[nH]c3ccc(C)cc23)C(=S)NC(C)(C)C)cc(OC)c1OC | -7 | nt | -3 | 4.6 | 2
CCCNC(=O)c1ccc(N2CCC3(CC2)CC(c2ccc(Cl)cc2)=NO3)c([N+](=O)[O-])c1 | nt | nt | -1 | -0.8 | nt
O=C(O)c1ccc(S(=O)(=O)N2CCC3(CC2)CC(=O)c2ccccc2O3)cc1 | nt | nt | -4 | -0.6 | nt
Cc1cc(/C=C(\C#N)C(=O)OCC(=O)Nc2ccc(OC(F)F)cc2)c(C)n1CC(C)C | -4 | 8% | 1 | -5.9 | -10
c1ccc2c(c1)nnn2-c1ncnc2sccc12 | 0 | 2% | 6 | 1.4 | nt
C=CCNC(=S)N/N=C(\C)c1cccnc1 | -1 | 4% | -11 | nt | nt
CS(=O)(=O)N(CC(=O)N1CCCC1)Cc1ccccc1 | -1 | -3% | 4 | -3.3 | nt
O=C(Nn1cnnc1)c1cc(Cl)cc(Cl)c1 | nt | nt | 10 | -0.6 | nt
COc1ccc(N(CC(=O)NC(C)(C)C)C(=O)c2ccco2)cc1 | 5 | -3% | -3 | -3.2 | -17
CCCCOc1c(Cl)cc(C(=O)N(C)CC(=O)Nc2ccc(N3CCOCC3)cc2)cc1OCC | nt | nt | 2 | -0.4 | nt
Cc1nn(CC(O)CN2c3ccccc3Sc3ccccc32)c(C)c1Br (centres undefined) | -42 | 33% | -11 | 24 | 14
CCOc1cccc(/C=N/NC(=S)Nc2ccccc2[N+](=O)[O-])c1O | -19 | 0% | -3 | -0.4 | nt
O=C(Nc1ccc(F)cc1F)N1CCN(C(=O)c2ccco2)CC1 | nt | nt | -21 | 1.8 | nt
O=C(NCCc1ccco1)C(=O)NCC1OCCCN1S(=O)(=O)c1ccc(Cl)cc1 (centres undefined) | nt | nt | -15 | -1.7 | nt
CC(C)NC(=O)N1CCOCCOCCN(C(=O)NC(C)C)CCOCCOCC1 | -1 | -5% | nt | -0.8 | -44
NS(=O)(=O)c1ccc(NC(=O)CSc2nc3ccccc3[nH]2)cc1 | 19 | -2% | -2 | -1.5 | nt
COc1cc(N)ccc1-c1cc2ccccc2oc1=O | nt | nt | -24 | -9.4 | nt
Cc1ccc(-n2nc(C(=O)NN)c(C)c(C#N)c2=O)cc1Cl | nt | nt | -3 | 11 | nt
Cc1ccc(Cl)c(OC(=O)Cn2cnc3c2c(=O)n(C)c(=O)n3C)c1 | 0 | -6% | -6 | 4.7 | nt
O=C1CCC(C(=O)N2CCCC2)CN1CCc1cccc(F)c1 (centres undefined) | nt | nt | 1 | 0.4 | nt
CCOC(=O)/C=C/C(=O)OCC(=O)NCc1ccccc1 | 4 | -2% | -5 | 5.1 | -5
Cc1ccc(C(=O)Nc2c3c(nn2C(C)(C)C)CS(=O)(=O)C3)cc1[N+](=O)[O-] | nt | nt | 2 | -1.4 | nt
COc1ccc(-n2c3c(cc(C(=O)N4CCCCC4)c2=O)C(=O)CC(C)(C)C3)cc1 | 2 | -1% | -6 | 0.3 | -12
COC(=O)c1ccccc1NC(=S)NC(=O)C1CCCCC1 | 3 | -3% | 2 | 3.5 | -36
O=C(Oc1ccccc1C(=S)N1CCCCC1)c1cc([N+](=O)[O-])cc([N+](=O)[O-])c1 | 2 | -6% | 39 | 28 | -40

More records
SMILES | Arbovirus anti | Mtb growth | Mtb betalactam | RecA splice inh | YopH inh | others
CC(=O)c1cccc(NC(=O)CSc2ccc(-c3ccco3)nn2)c1 | nt | nt | -5 | 0.9 | nt
O=C(OCC(=O)N1CCCC1)c1ccc(S(=O)(=O)Nc2ccccc2)cc1 | 4 | -8% | -3 | -0.7 | nt
CC(Oc1ccc(Cl)cc1Cl)C(=O)Nc1ccc(OCC(=O)O)cc1 (centres undefined) | 1 | 2% | 2 | 1.3 | nt
CCOC(=O)Nc1ccccc1C(=O)N1CCOCC1 | -2 | 1% | -10 | 1.2 | -38 | Arbovirus anti repeat=0
S=C(Nc1ccccc1)Nn1cnnc1 | 7 | 3% | -2 | 6.3 | -25
COc1ccc2oc(C(=O)N(C)CCOc3ccc(Cl)cc3)c(C)c2c1 | nt | nt | 1 | 15 | nt
Cc1ccc(S(=O)(=O)CCc2nc3ccccc3[nH]2)cc1 | 11 | 1% | 6 | 1.4 | nt
c1ccc(-c2csc(N3CCc4ccccc4C3)n2)cc1 | -3 | -7% | -3 | 4.3 | -26
Cc1cc(C)cc(N(CC(=O)N2CCC(C)CC2)S(C)(=O)=O)c1 | -4 | -12% | 7 | 0.6 | -28
CC1CCN(c2ccc(NC(=O)Cc3ccccc3)cc2)CC1 | -1 | 5% | -2 | -2.4 | nt
Cc1c(C(=O)n2cnc3ccccc32)cccc1[N+](=O)[O-] | nt | nt | -3 | 5.7 | nt
CCOCCCN(Cc1ccco1)C(=O)c1cc2c(=O)[nH]c3ccc(C)cc3c2s1 | -9 | 8% | -3 | 1.4 | -4
CC(=O)[C@@]1(O)CC[C@H]2[C@@H]3CC=C4C[C@@H](O)CC[C@]4(C)[C@H]3CC[C@@]21C | -9 | -1% | 1 | -1.9 | 1
CCOC(=O)C1C(=O)Oc2ccc3ccccc3c2C1C1CCOC1=O (centres undefined) | 4 | -7% | 8 | -1.7 | nt | Arbovirus anti repeat=2
CCOC(=O)c1[nH]c(CN2CCN(c3ccc(OC)cc3)CC2)c(C(=O)OCC)c1C | nt | nt | 98 | -2.3 | nt
O=C(c1cn[nH]c1)N1CCc2c([nH]c3ccccc23)C1c1c(F)cccc1Cl (centres undefined) | 20 | -4% | -10 | -2.2 | nt
CN(CCC1CCOCC1)C(=O)C1CCC(=O)N(CCc2cccc(F)c2)C1 (centres undefined) | nt | nt | -6 | 0.7 | nt
Cc1ccc(S(=O)(=O)N(C)Cc2ccc(C(=O)N/N=C/c3ccc(OC(F)F)cc3)cc2)cc1 | -13 | 15% | ? | -1.2 | 12
COC(=O)c1cc2sccc2n1Cc1nc(-c2cccc(Cl)c2)oc1C | 1 | 2% | -7 | 0.5 | -50
O=C(NNC(=O)c1ccc(Br)cc1)c1ccncc1 | nt | nt | -7 | 0.1 | nt
CC(Sc1ccc(Cl)cc1)C(=O)NNC(=O)c1ccccc1O (centres undefined) | nt | nt | 3 | 16 | nt
CCOC(=O)CC(=O)Nc1ccn[nH]1 | nt | 1% | 4 | 0.1 | nt

Screens: PubChem BioAssay, several laboratories
